# Rango-impB inh: qHTS Assay for Inhibitors of Rango (Ran-regulated importin-beta cargo) - Importin beta complex formation; Potency, µM (doses to about 92.2 µM), for the others: at the highest dose inhibition of complex formation; 340,000 tested, 0.031% active; Rango CFP/YFP FRET sensor + importin beta, 45 min; active = rising FRET ratio curve, often small or poorly fitted; inconclusive = mostly compound fluorescence or quenching in the first reads; inactive = flat curves in all reads;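 further: potency means the concentration at half of the fitted maximal effect; 0% = DMSO wells and 100% = buffer wells lacking importin beta; nearly all actives have a fitted effect of over 15% in size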
#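 Inhibition scored from the CFP 486 nm/YFP 530 nm FRET ratio 45 min after adding 0.125 microM importin beta to 50 nM Rango biosensor preincubated 5 min with compound (room temperature, PBS with DTT, Tween-20, BSA). No-importin wells as positive control.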
# GLA inh pH 4.5: qHTS Assay for Inhibitors of Human alpha-Galactosidase at pH 4.5 | AID 1467, 2008 | Alpha-galactosidase A (Homo sapiens), P06280 | purified enzyme, 4-MU-alpha-Gal fluorescence, pH 4.5 | activity change, negative = inhibition, % at 105 µM | 230,000 tested, under 10 active; inconclusive = small, poorly fitted or top-dose-only inhibition, or a rising curve; inactive = flat fitted curve, though single readings scatter; no compound was filed as active;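 further: 0% = full activity with enzyme and -100% = basal without enzyme; dose as in the result columns while the protocol names 77 µM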
# Target sequence (P06280 whole entry, looked up): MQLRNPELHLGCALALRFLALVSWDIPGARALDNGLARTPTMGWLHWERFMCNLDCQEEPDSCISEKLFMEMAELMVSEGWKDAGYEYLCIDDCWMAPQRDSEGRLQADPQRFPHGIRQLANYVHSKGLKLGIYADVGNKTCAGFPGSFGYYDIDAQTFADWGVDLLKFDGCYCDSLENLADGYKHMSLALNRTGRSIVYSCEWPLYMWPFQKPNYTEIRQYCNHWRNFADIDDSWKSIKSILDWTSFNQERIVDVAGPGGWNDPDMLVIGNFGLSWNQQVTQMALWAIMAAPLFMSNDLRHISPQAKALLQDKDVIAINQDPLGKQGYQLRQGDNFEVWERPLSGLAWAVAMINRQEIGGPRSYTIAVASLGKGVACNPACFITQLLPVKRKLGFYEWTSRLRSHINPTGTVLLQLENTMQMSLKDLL
# Rango dissoc inh: qHTS Assay for Inhibitors of RanGTP induced Rango (Ran-regulated importin-beta cargo) - Importin beta complex dissociation | Snurportin-1 (Homo sapiens) + GTP-binding nuclear protein Ran (Homo sapiens) + Importin … | Biochemical FRET Rango-importin beta, RanGTP-induced dissociation | Potency, µM (doses to about 46.1 µM), inactives show top-dose activity change, negative = inhibition | 340,000 tested, 0.071% active; active means falling FRET ratio curve, often poorly fitted, with flat reads before Ran was added; inconclusive means other falling curves, or compound fluorescence or quenching; inactive means flat or rising ratio curve;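 further: potency means the concentration at half of the fitted maximal effect; % of control where 0% means no effect; nearly all actives have a fitted effect of over 45% in size; -100% = wells without RanGTP and RCC1; the record marks most hits as doubtful in a second field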
#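 Two FRET readings bracket the reaction: one 5 min after compound meets Rango–importin beta, another 45 min after RanGTP-RCC1 (0.6 uM Ran, 0.2 uM RCC1, 2 mM GTP) is added. Only the second defines inhibition.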
# miR-21 FLuc: qHTS Assay for Modulators of miRNAs and/orActivators of miR-21; HeLa miR-21 FLuc reporter, luciferase, 48 h; Potency, µM (highest dose often 38.3 µM), for inactives: at the top dose reporter change, positive = more light; 340,000 tested, under 10 active; AID 2288, 2010; active = well fitted rising curve with a large enough effect; inconclusive = small, poorly fitted or top-dose-only effect; inactive = no such curve, though single readings can be large or run the other way;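 further: % of control where 0% means no effect; miR-21 action dims this reporter so a rising signal means less miR-21 action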
#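 HeLa cells stably expressing CMV-driven firefly luciferase with a downstream miR-21 binding sequence, endogenously expressing miR-21, were treated with titrations (up to about 40uM final) for 48 hours at 37 degree Celsius. Luciferase luminescence was read after lysis.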
# An asterisk follows results filed as active; ? = inconclusive; · = not tested or not shown; & = joins results of further samples; [ ] = remark or other dose. Some of the compounds tested, so the mix of outcomes need not match the whole.
no.	Structure	Rango-impB inh	GLA inh pH 4.5	Rango dissoc inh	miR-21 FLuc
1	Cc1ccc(-n2c(SCc3nnc4n3CCC4)nnc2-c2ccccc2)cc1	-2.8%	2.2	3.1%	0.1%
2	CC(C)n1c(N2CCCC2)nc2c1c(=O)[nH]c(=O)n2C	-0.1%	·	0.5%	-12.1%
3	CC1CN(Cc2c(O)ccc3c(=O)c(-c4ccccc4Cl)coc23)CC(C)O1 (stereo unspecified)	0.4%	·	-21.2%	0.0%
4	C=CCn1c(-c2csc(-c3ccc(Cl)cc3)n2)n[nH]c1=S	-0.9%	-1.1	-1.4%	-2.8%
5	O=C(Nc1c2c(nn1-c1ccccc1)CS(=O)(=O)C2)c1cc2ccccc2o1	2.4%	·	1.0%	-0.7%
6	Cc1cc(C)cc(NC(=O)c2ccc(CSc3nnc(C)s3)cc2)c1	3.0%	-7.2	1.9%	-23.9%
7	O=C(NCc1ccco1)C1CCCN(S(=O)(=O)Cc2ccccc2)C1 (stereo unspecified)	2.2%	-1.4	-0.4%	0.3%
8	CN(C)C(=O)CCc1ccc2c3c([nH]c2c1)[C@]1(C)[C@@H](C(=O)N2CCOCC2)C[C@H](CC(=O)NCC24CC5CC(CC(C5)C2)C4)C(=O)N1CC3	6.8%	·	-16.8%	·
9	COc1ccc(C(=O)Nc2ccccc2C(=O)NC(Cc2ccc(O)cc2)C(=O)NNC(=O)c2ccncc2)cc1 (stereo unspecified)	1.3%	-9.3	6.0%	-15.2%
10	CC(/C=C/c1ccccc1)=N\NC(=O)C1CC1(C)c1ccccc1 (stereo unspecified)	1.6%	-2.9	6.4%	0.1%
11	Cn1c(CNC(=O)c2ccccc2F)nnc1SCC(=O)N1CCN(c2ccccc2)CC1	1.4%	2.1	10.8%	-26.0%
12	CC(=O)NC(c1ccccc1)c1cc(Cl)c2cccnc2c1O (stereo unspecified)	0.9%	·	-0.6%	20.2%
13	COc1cccc(-c2nnc(N(C)C(=O)c3ccno3)s2)c1	·	5.1	·	-33.8%
14	O=c1[nH]c(=S)[nH]cc1S(=O)(=O)c1cccc(Cl)c1	2.5%	·	3.0%	1.1%
15	NC(=O)N=Nc1c(O)[nH]c2ccc([N+](=O)[O-])cc12	-1.3%	-15.2	28.7%	2.1%
16	CCC(C)C(=O)Nc1nnc(CCc2ccccc2)s1 (stereo unspecified)	-0.1%	·	2.0%	-17.4%
17	NS(=O)(=O)c1cnccc1Nc1ccc(Cl)cc1	1.1%	5.9	34.0%	-23.8%
18	O=C(Nc1cccc2ccccc12)c1cnsn1	-0.4%	0.3	-11.4%	-6.6%
19	S=C(CN1CCCC1=S)NCCc1ccccc1	-0.9%	-5.1	-4.5%	-0.2%
20	COc1ccc(/C=N/NC(=O)c2cccnc2)cc1COc1ccc([N+](=O)[O-])cc1	-2.9%	-2.0	-2.2%	18.1%
21	CCN(CC)S(=O)(=O)c1ccc(Cl)c(C(=O)NNC(=O)c2csc(N3CCOCC3)n2)c1	3.8%	·	17.4%	·
22	O=C1CCN(CCc2ccccc2)CCN1CCOc1ccccc1	-4.6%	·	-9.9%	-9.8%
23	O=C(O)Cc1c[nH]c2ccc(O)cc12	-3.4%	0.5	0.5%	·
24	Cc1onc(-c2ccccc2)c1C(=O)NNC(=O)c1ccccc1O	-1.7%	·	?	·
25	CC(C(=O)Nc1ccc(C(=O)O)c(O)c1)N1C(=O)/C(=C\c2ccco2)SC1=S (stereo unspecified)	-0.8%	·	-17.8%	0.9%
26	COc1cc(OC)cc(-c2n[nH]c(=S)n2-c2cc(OC)ccc2OC)c1	-0.2%	3.1	0.2%	-10.2%
27	CC(C)(CS(=O)(=O)[O-])NC(=O)CC[N+](C)(C)CCO	-10.4%	5.7	10.2%	0.7%
28	N#CCCN(CCC#N)C(=O)c1ccc2c(c1)OCO2	0.5%	2.3	-3.2%	-1.5%
29	Cc1cnc(C(=O)NCCc2ccc(S(=O)(=O)NC(=O)NC3CCCCC3)cc2)cn1	-2.5%	2.4&-0.6	-1.8%	0.6%
30	O=C(Cc1cccc(C(F)(F)F)c1)NCc1ccc(Cl)cc1Cl	2.8%	-0.9	16.7%	-8.4%
31	COc1ccc(C(C)=O)cc1CSc1nnc(Nc2ccccc2)s1	-1.7%	-3.5	8.5%	26.2%
32	CCCCNC(=O)CC1N=C2c3ccccc3N=C(SCC(=O)Nc3cccc(OC)c3)N2C1=O (stereo unspecified)	?	1.1	-20.3%	-3.9%
33	CCC(CC)C(=O)OCC(=O)NC12CC3CC(CC(C3)C1)C2	-3.9%	-1.1	15.9%	-3.1%
34	S=c1nc[nH]c2c1ncn2C1CCCC1	1.3%	3.9	-11.0%	4.1%
35	O=C1c2ccccc2C(=O)N1CSc1nnc2c3ccccc3n(CCc3ccccc3)c2n1	1.8%	-1.7	8.3%	-2.7%
36	CC(C)CCn1c(COc2ccccc2)n[nH]c1=S	2.8%	5.5	9.1%	0.0%
37	COc1ccc(C(=O)N/N=C(\C)c2cccc(NC(=O)c3ccc(F)cc3)c2)c(OC)c1	0.9%	·	-5.5%	-20.9%
38	COc1ccc(S(=O)(=O)N2CCOCC2)cc1NC(=O)COC(=O)c1[nH]c(C)c(C(C)=O)c1C	-0.1%	·	-11.1%	·
39	Cc1cn(CC(=O)NCc2ccccn2)c(=O)[nH]c1=O	-2.3%	·	-2.8%	·
40	CC1=CC(C)(C)N2C(=O)C3(C(C#N)=C(N)OC4=C3C(=O)CCC4)c3c(C)c(C)cc1c32 (stereo unspecified)	-7.1%	7.4	-16.0%	-2.1%
41	CCC(Sc1nc2n[nH]c(C)c2c(=N)n1-c1cccc(Cl)c1C)C(=O)N(CC)CC (stereo unspecified)	4.3%	-4.0	6.8%	-30.2%
42	COc1ccccc1CNC(=S)NC1CCCCC1	-2.7%	2.4	4.7%	4.9%
43	COc1ccc(Cl)cc1NC(=O)C[n+]1ccccc1	-3.1%	·	-8.1%	4.0%
44	COc1ccc2cc(/C(C)=N/NC(=O)c3cc(-c4cccnc4)nc4ccccc34)ccc2c1	1.1%	5.7	0.6%	-0.6%
45	Cc1ccc(S(=O)(=O)N2CCOCC2)cc1N/N=C(\C#N)c1nc2ccccc2[nH]1	?	-14.3	?	1.1%
46	CCOC(=O)C1(Cc2ccccc2C(F)(F)F)CCN(C(=O)c2cc(C)n(C)n2)CC1	0.9%	6.3	-3.2%	-41.1%
47	Cc1ccc(NC(=O)CCCn2nc(C)c3c(C)n(-c4ccccc4)nc3c2=O)cc1C	-0.4%	·	8.0%	-1.6%
48	Cc1occc1C(=O)N/N=C/C=C/c1ccccc1[N+](=O)[O-]	1.4%	3.8[21.1 µM]	26.9%	-42.0%
49	Nc1ccc(Oc2ncccn2)cc1	-2.7%	·	-6.6%	-7.0%
50	CC1=NN(c2ccccc2)C(=O)/C1=C\c1cc(C)n(-c2ccccc2)c1C	0.1%	-6.1	3.3%	0.8%

# (list continues)
no.	Structure	Rango-impB inh	GLA inh pH 4.5	Rango dissoc inh	miR-21 FLuc
51	CS(=O)(=O)N(CC(O)Cn1c2ccccc2c2ccccc21)c1ccccc1 (stereo unspecified)	-0.8%	-1.9	-3.8%	21.2%
52	Cc1cccc2c1N(CCOc1ccccc1Cl)C(=O)C2=O	0.4%	4.7	-7.5%	2.4%
53	COc1ccc(OCC(O)CON2C(=O)c3ccccc3C2=O)cc1 (stereo unspecified)	-1.9%	-16.5	1.3%	-13.0%
54	COc1cc(-c2nnn(Cc3ccccc3C)n2)cc(OC)c1OC	1.3%	·	17.1%	5.1%
55	CC1CCCCN1C(=O)CSc1nc(-c2ccccc2)cn1N (stereo unspecified)	-4.3%	-0.8	-1.6%	-31.3%
56	CCOC(=O)C1=CNS(=O)(=O)NC1c1ccc(C)cc1 (stereo unspecified)	-1.9%	·	1.3%	·
57	Cc1sc(NC(=O)CN(C)C2CCCCC2)nc1-c1ccc2c(c1)CCN2S(=O)(=O)c1ccccc1	·	2.3	·	3.7%
58	O=CN1CCN(C(C(=O)NC2CCCC2)c2ccc(Cl)cc2)CC1 (stereo unspecified)	-0.2%	-9.1	8.5%	-10.0%
59	COC(=O)c1cc2n(n1)CCN(Cc1ccc(OC)cc1)C2=O	0.1%	-3.6	-4.6%	-0.6%
60	CCOC(=O)c1sc(NC(=O)c2ccccc2OC)nc1C	-2.6%	-8.9	9.1%	-61.6%
61	C=CCOC(=O)C1=C(C)NC(C)=C(C(=O)OCC=C)C1c1ccco1	2.1%	1.9	-3.9%	12.8%
62	C/C(=N\N=C1\NC(=O)C(Cc2ccccc2)S1)c1ccccc1 (stereo unspecified)	5.5%	?	15.9%	-7.2%
63	Cc1cc(C)c2cc3c(N)c(C(=O)N4CCOCC4)sc3nc2c1	?	3.9	-4.8%	1.2%
64	Cc1nnc(SCC(=O)Nc2cc(S(=O)(=O)N3CCOCC3)ccc2C)s1	-0.7%	·	1.1%	·
65	CCN(CC(=O)NCc1cccs1)S(=O)(=O)c1ccc(F)c(F)c1F	-3.1%	·	7.3%	·
66	COC(=O)C1=C(N)Oc2c(oc(CO)cc2=O)C1c1ccccc1F (stereo unspecified)	-0.3%	-3.5	-0.5%	-0.9%
67	c1cc2c(c(NCc3ccncc3)c1)CCCC2	-0.1%	0.9	13.0%	16.4%
68	COc1ccc(S(=O)(=O)NCc2ccccn2)cc1NC(=O)c1ccc(Cl)cc1	1.1%	·	0.0%	·
69	Oc1ccc2ccc(Cl)cc2c1	-0.8%	·	?	·
70	COc1ccc(C)cc1NC(=O)CSc1nnc(COc2ccccc2)n1Cc1ccco1	-3.1%	-6.7	-11.6%	2.6%
71	C=CCn1c(SCC(=O)c2cccs2)nc2sc(C)c(C)c2c1=O	-0.4%	1.5	8.6%	21.2%
72	N=C1C(c2nc3ccccc3c(=O)[nH]2)=C(O)CN1CCc1ccccc1	2.0%	-2.2	-0.1%	-15.1%
73	COc1cccc(CNC(=O)c2ccc(C)c(S(=O)(=O)N3CCOCC3)c2)c1	-5.1%	·	7.2%	·
74	Cc1nnc(SCc2ccccn2)n(N)c1=O	0.6%	1.2	-15.0%	3.5%
75	Cn1cccc1C(C#N)c1cccc(F)c1C#N (stereo unspecified)	-1.8%	-9.2	3.4%	-0.8%
76	Cc1ccc(C(=O)NNC(=O)C2CCN(Cc3ccccc3)CC2)cc1	-2.7%	-6.4	-8.4%	1.3%
77	O=C(Nc1ccccc1C(F)(F)F)NC1CCCCC1	3.1%	1.5	-0.9%	-3.9%
78	COc1ccc(-n2c(SC3CCOC3=O)nc3ccccc3c2=O)cc1OC (stereo unspecified)	3.3%	0.9	13.2%	-14.7%
79	CSc1ccccc1NC(=O)Cn1nnc(-c2ccc(S(C)(=O)=O)cc2)n1	-0.2%	3.6	2.4%	0.4%
80	CC(CN1CCCC1)OC(=O)c1ccc(Cl)cc1Cl (stereo unspecified)	-1.3%	·	-11.6%	-5.6%
81	Cc1ccsc1/C=C1/SC(=O)N(CC(=O)N2CCCC2)C1=O	-3.0%	·	-2.2%	-10.1%
82	Cc1ccccc1-c1nnc(SCC(=O)Nc2c(C)n(C)n(-c3ccccc3)c2=O)o1	-0.1%	·	9.7%	·
83	Cc1ccc(S(=O)(=O)c2c(C)cc(-c3ccccc3)[nH]c2=O)cc1	0.1%	13.9	13.3%	9.3%
84	CC(C)COc1ccc(C(=O)N/N=C/c2ccoc2)cc1	4.6%	·	-10.7%	-8.7%
85	Cc1cc(=O)n(C)c(=O)n1CCCCCCN1CCCC1	-6.7%	-8.6	1.8%	-16.1%
86	O=C(CCN1C(=O)C2(OCCO2)c2ccccc21)c1ccccc1	0.9%	0.4	-13.8%	-15.4%
87	CN(C(=O)c1cccc(NC(=O)Cc2ccc(NC(=O)C3CCCN(C(=O)CCc4ccccc4)C3)cc2)c1)C1CCCCC1 (stereo unspecified)	?	·	-22.7%	·
88	Cc1c(/C=C(\C#N)C(=O)NCc2ccccc2)cc(C#N)n1C	?	·	15.1%	-4.4%
